YB-1 expression: inhibitors of YB-1 gene expression, primary screen, cell-based, fluorescence; U2OS, qRT-PCR YB-1 vs CDIP delta delta Cp, 16 h; active compounds read high; zero = DMSO, each unit about twofold; delta delta Cp (YB-1 minus CDIP) (concentration not given with the values); actives 0.37% (n = 30,000); AID 434959, 2010;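 active = delta delta Cp rounded down to an integer at or above 3, about 3 SD of DMSO wells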;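 also: higher means less YB-1 transcript or more CDIP transcript relative to DMSO; stock transfer was 100 nL into about 100 µL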
Shh pathway inh: Hedgehog pathway signaling inhibitors, primary screen, luminescence, Shh-LIGHT2 cells, Gli-luciferase. actives 2.1% (n = 22,000). Shh-LIGHT2 Gli-luciferase reporter, 30 h. inhibition, % (no concentration beside the values). AID 2313, 2010;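 active = replicate mean of 65% or more; inconclusive = mean lower but half the replicates past it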;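 also: pathway switched on by Shh-conditioned medium diluted 1 in 25 in low serum; 100 nL library stock added to about 40 µL; 0% = median of neutral wells and 100% = positive control level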
PD-1 reversal: activators reversing PD-1 mediated T-cell inhibition, primary screen, luminescence, primary human CD4 T cells, PD-L1 beads; CellTiter-Glo 96 h; activation, % (no concentration beside the values); 29,000 tested, under 10 active; AID 2316, 2010;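 active = replicate mean of 50% or more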;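 also: 0% = median vehicle wells and 100% = positive control; 100 nL library stock added to about 50 µL; numbers are from one replicate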
MITF inhib: inhibitors of MITF, primary screen, MITF inhibitor project, cell-based, luminescence; TRPM1 promoter luciferase, 24 h; inhibition, % (no concentration beside the values); actives 0.28% (n = 37,000); AID 2240, 2010;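 active = most replicates at 85% or more, or half of them and the mean; inconclusive = half reach 85% but not the mean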;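 also: human melanocyte line stably carrying TRPM1 promoter luciferase reporter; 0% = vehicle wells and 100% = a positive control; the first replicate is given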
* hit, by the source's call; ? = inconclusive; · = no result given.

SMILES	YB-1 expression	Shh pathway inh	PD-1 reversal	MITF inhib
C[C@@H]1CN([C@@H](C)CO)C(=O)Cc2cc(NC(=O)Nc3ccc(C(F)(F)F)cc3)ccc2O[C@@H]1CN(C)Cc1ccncc1	-0.02	23	-4.3	12
COc1ccc(NC(=O)Nc2ccc3c(c2)C(=O)N([C@H](C)CO)C[C@H](C)[C@H](CN(C)C(=O)Nc2ccccc2)OCCCC[C@@H](C)O3)cc1	0.0022	3	-0.3	-8
C[C@H]1CN([C@@H](C)CO)C(=O)c2cc(NS(=O)(=O)c3cccs3)ccc2O[C@H]1CN(C)S(=O)(=O)c1ccccc1	-0.7	·	-6.7	-18
C[C@@H]1CN([C@@H](C)CO)C(=O)c2cccc(NC(=O)NC3CCCCC3)c2O[C@H]1CN(C)C(=O)Nc1ccccc1	0.36	-17	·	3
C[C@H](CO)N1C[C@H](C)[C@H](CN(C)S(=O)(=O)c2ccc(Cl)cc2)Oc2ccc(NS(C)(=O)=O)cc2CC1=O	-0.079	-3	·	-8
C[C@H]1CN([C@@H](C)CO)C(=O)Cc2cc(NS(C)(=O)=O)ccc2O[C@@H]1CN(C)C	0.41	-21	0.6	-8
O=C(CSc1nc(SCC(=O)c2ccccc2)c2ccccc2n1)c1ccccc1	-0.041	76*	0.5	5
CNC[C@H]1Oc2ccc(NC(=O)CCCN(C)C)cc2C(=O)N([C@H](C)CO)C[C@H]1C	-0.26	-20	·	3
O=C(CSc1nnc(-c2ccccc2Br)o1)c1ccc2c(c1)OCCO2	·	·	0.3	11
S=C1NC2=C(CCc3ccccc32)C(c2ccccc2)N1 (stereo not given)	0.55	51	-2.2	17
C[C@@H]1CN([C@H](C)CO)C(=O)c2cc(NS(=O)(=O)c3cn(C)cn3)ccc2O[C@H]1CN(C)C(=O)Nc1ccc(C(F)(F)F)cc1	-0.62	·	-2.1	2
C[C@H]1CN([C@@H](C)CO)C(=O)c2cc(NC(=O)Nc3ccc(F)cc3)ccc2O[C@H]1CN(C)S(C)(=O)=O	0.23	-14	1.8	-7
Cc1ccc(NC(=O)CSc2nnc(-c3cccnc3)s2)cc1	·	·	3.3	0
C[C@H](CO)N1C[C@H](C)[C@H](CN(C)Cc2ccc(Oc3ccccc3)cc2)Oc2ccc(NS(C)(=O)=O)cc2C1=O	0.21	12	-1.3	5
COc1ccc(S(=O)(=O)N(CC(=O)Nc2ccc3c(c2)OCCO3)C2CCCCC2)cc1Cl	·	·	0.0	-28
Cc1ccc(S(=O)(=O)Nc2cccc3c2O[C@@H](CN(C)S(=O)(=O)c2cn(C)cn2)[C@H](C)CN([C@H](C)CO)C3=O)cc1	0.1	-5	0.8	-3
C[C@H]1CN([C@@H](C)CO)C(=O)Cc2cc(NC(=O)CCC(F)(F)F)ccc2O[C@@H]1CN(C)S(C)(=O)=O	-0.18	19	0.8	0
CC(C)NC(=O)Nc1cccc2c1O[C@H](CN(C)S(=O)(=O)c1cccs1)[C@@H](C)CN([C@H](C)CO)C2=O	-0.64	15	1.8	12
COc1ccc(S(=O)(=O)N(C)CC(=O)Nc2cc(Cl)cc(Cl)c2)cc1	·	·	2.8	0
Cc1noc(C)c1NC(=O)Nc1cccc2c1O[C@H](CN(C)Cc1ccc(-c3ccccc3)cc1)[C@H](C)CN([C@@H](C)CO)C2=O	-0.42	-36	0.6	-7

Limited to YB-1 expression and PD-1 reversal, for 2 of the compounds above:
molecule | YB-1 expression | PD-1 reversal
CNC[C@H]1Oc2ccc(NC(=O)CCCN(C)C)cc2C(=O)N([C@H](C)CO)C[C@H]1C | -0.26 | ·
C[C@@H]1CN([C@H](C)CO)C(=O)c2cc(NS(=O)(=O)c3cn(C)cn3)ccc2O[C@H]1CN(C)C(=O)Nc1ccc(C(F)(F)F)cc1 | -0.62 | -2.1

More structures follow:
SMILES	YB-1 expression	Shh pathway inh	PD-1 reversal	MITF inhib
C[C@@H]1CN([C@H](C)CO)C(=O)c2cc(NC(=O)CCCN(C)C)ccc2O[C@@H]1CN(C)CC1CCCCC1	-0.01	-18	0.2	-5
C[C@@H]1CN([C@H](C)CO)C(=O)Cc2cc(NC(=O)C3CCCCC3)ccc2O[C@H]1CN(C)S(=O)(=O)c1ccccc1	-0.28	33	-0.8	7
C=C(C)C(=O)O[C@H]1C[C@@]2(C)OC(=CC2=O)/C(COC(C)=O)=C\[C@H]2OC(=O)C(=C)C12 (stereo not given in full)	-0.35	?	-13	34
COc1ccc(NC(=O)Nc2ccc3c(c2)C(=O)N([C@@H](C)CO)C[C@H](C)[C@@H](CN(C)C(=O)NC2CCCCC2)O3)cc1	-0.18	·	0.0	-4
COc1ccc(NC(=O)N(C)C[C@H]2Oc3ccc(NC(=O)Cn4cnnn4)cc3C(=O)N([C@@H](C)CO)C[C@H]2C)cc1	0.52	·	0.6	-9
C[C@H]1CN([C@@H](C)CO)C(=O)c2cccc(NC(=O)c3ccncc3)c2O[C@H]1CN(C)S(=O)(=O)c1ccc(Cl)cc1	0.45	-54	·	-6
O=C(CSc1nnc(-c2cccc([N+](=O)[O-])c2)o1)c1ccc2c(c1)OCCO2	·	·	2.2	-8
C[C@H]1CN([C@@H](C)CO)C(=O)c2cccc(NS(=O)(=O)c3cccs3)c2O[C@@H]1CN(C)Cc1ccc(Oc2ccccc2)cc1	-0.1	0	·	8
C[C@@H]1CN([C@H](C)CO)C(=O)c2cc(NS(=O)(=O)c3ccccc3)ccc2O[C@@H]1CN(C)S(=O)(=O)c1cn(C)cn1	0.35	-26	0.9	-4
C[C@@H]1CN([C@@H](C)CO)C(=O)c2cccc(NS(=O)(=O)c3ccc(F)cc3)c2O[C@@H]1CN(C)S(=O)(=O)c1ccc(Cl)cc1	-0.47	12	-1.0	3
C[C@@H]1CN([C@@H](C)CO)C(=O)c2cc(NC(=O)CCN3CCOCC3)ccc2O[C@@H]1CN(C)S(=O)(=O)c1ccc(Cl)cc1	-0.9	25	2.2	-3
COc1ccc(S(=O)(=O)Nc2ccc3c(c2)CC(=O)N([C@@H](C)CO)C[C@H](C)[C@@H](CN(C)CC2CC2)O3)cc1	0.81	11	0.1	0
C[C@H]1CN([C@@H](C)CO)C(=O)c2cccc(NS(=O)(=O)c3cccs3)c2O[C@@H]1CN(C)C(=O)Nc1ccccc1	0.29	-16	1.0	-1
CC(C)NC(=O)Nc1ccc2c(c1)C(=O)N([C@@H](C)CO)C[C@H](C)[C@H](CN(C)C(=O)NC(C)C)O2	-0.29	·	0.4	-13
C[C@@H]1CCCCO[C@@H](CN(C)Cc2ccc(C(=O)Nc3ccccc3N)cc2)[C@@H](C)CN([C@H](C)CO)C(=O)c2cc(NS(=O)(=O)c3ccccc3)ccc2O1	-0.04	·	-1.2	16
Cc1noc(C)c1NC(=O)Nc1cccc2c1O[C@H](CN(C)C)[C@@H](C)CN([C@@H](C)CO)C2=O	0.38	-4	·	5
C[C@H](CO)N1C[C@H](C)[C@@H](CN(C)C(=O)Nc2ccc(F)cc2)Oc2c(NS(=O)(=O)c3ccccc3)cccc2C1=O	-0.12	-4	·	1
C[C@H]1CN([C@@H](C)CO)C(=O)c2cc(NC(=O)Cc3cn(C)c4ccccc34)ccc2O[C@H]1CN(C)Cc1ccccc1	-0.15	·	-0.4	14
CC(C)NC(=O)Nc1ccc2c(c1)C(=O)N([C@H](C)CO)C[C@H](C)[C@@H](CN(C)S(=O)(=O)c1ccc(F)cc1)OCCCC[C@@H](C)O2	-0.17	·	0.5	-6
CNC[C@@H]1Oc2ccc(NC(=O)Nc3ccccc3)cc2C(=O)N([C@H](C)CO)C[C@@H]1C	-0.33	·	·	4

For reference, part of the list above:
SMILES	YB-1 expression	Shh pathway inh	PD-1 reversal	MITF inhib
Cc1noc(C)c1NC(=O)Nc1cccc2c1O[C@H](CN(C)C)[C@@H](C)CN([C@@H](C)CO)C2=O	0.38	-4	·	5
C[C@H](CO)N1C[C@H](C)[C@@H](CN(C)C(=O)Nc2ccc(F)cc2)Oc2c(NS(=O)(=O)c3ccccc3)cccc2C1=O	-0.12	-4	·	1
C[C@H]1CN([C@@H](C)CO)C(=O)c2cc(NC(=O)Cc3cn(C)c4ccccc34)ccc2O[C@H]1CN(C)Cc1ccccc1	-0.15	·	-0.4	14
CC(C)NC(=O)Nc1ccc2c(c1)C(=O)N([C@H](C)CO)C[C@H](C)[C@@H](CN(C)S(=O)(=O)c1ccc(F)cc1)OCCCC[C@@H](C)O2	-0.17	·	0.5	-6
CNC[C@@H]1Oc2ccc(NC(=O)Nc3ccccc3)cc2C(=O)N([C@H](C)CO)C[C@@H]1C	-0.33	·	·	4

Remaining list, next part:
SMILES	YB-1 expression	Shh pathway inh	PD-1 reversal	MITF inhib
COc1cc(C(=O)NC2(C(F)(F)F)C(=O)N(CC3CCCO3)C3=C2C(=O)CC(C)(C)C3)cc(OC)c1OC (stereo not given)	·	·	0.8	-16
CS(=O)(=O)N(CC(=O)Nc1cccc(C(F)(F)F)c1)c1ccc(F)c(Cl)c1	·	·	-2.5	-2
C[C@H]1CN([C@@H](C)CO)C(=O)c2cc(N(C)C)ccc2O[C@H]1CN(C)Cc1ccc(C(=O)Nc2ccccc2N)cc1	-0.4	·	-1.6	14
C[C@@H]1CN([C@@H](C)CO)C(=O)c2cc(NS(=O)(=O)c3cccs3)ccc2O[C@H]1CN(C)S(=O)(=O)c1cn(C)cn1	0.94	·	1.9	4
COc1ccc(S(=O)(=O)N(C)C[C@@H]2Oc3ccc(NS(=O)(=O)c4cccs4)cc3C(=O)N([C@H](C)CO)C[C@H]2C)cc1	0.026	·	-1.7	-7
CC1(C)Cc2c(sc3c2c(=O)n(Cc2ccccc2)c2nnc(SCC(=O)c4ccc(Cl)cc4)n32)CO1	·	·	2.5	19
C[C@@H]1CN([C@H](C)CO)C(=O)c2cc(NS(=O)(=O)c3ccc(F)cc3)ccc2O[C@@H]1CN(C)CC1CCCCC1	-0.23	45	0.3	5
Cc1ccc(Cl)c(OCC(=O)NCc2ccco2)c1	·	·	-2.7	-102
CC(C)NC(=O)N(C)C[C@@H]1Oc2c(NC(=O)Nc3cccc4ccccc34)cccc2C(=O)N([C@H](C)CO)C[C@@H]1C	-0.32	37	·	-2
O=C(NCCOc1nc(N2CCCCC2)nc(N2CCOCC2)n1)Nc1ccccc1	·	·	0.4	-18
CCn1c(SCC(=O)Nc2ccc(Cl)cc2Cl)nnc1-c1ccccc1F	·	·	-0.4	23
COc1ccc(S(=O)(=O)Nc2cccc3c2O[C@H](CN(C)C(=O)Nc2ccccc2)[C@@H](C)CN([C@@H](C)CO)C3=O)cc1	0.39	-46	-1.2	8
COc1ccc(NC(=O)N(C)C[C@@H]2OCCCC[C@@H](C)Oc3ccc(NS(=O)(=O)c4ccc(OC)cc4)cc3C(=O)N([C@H](C)CO)C[C@@H]2C)cc1	-0.11	0	-0.5	2
C=C(C)Cn1c(SCc2nc3ccccc3[nH]2)nc2sc3c(c2c1=O)CCC3	·	·	-2.7	32
C[C@@H]1CN([C@H](C)CO)C(=O)Cc2cc(NC(=O)c3ccncc3)ccc2O[C@H]1CN(C)S(=O)(=O)c1cn(C)cn1	0.049	3	-0.2	-18
C[C@@H]1CN([C@H](C)CO)C(=O)Cc2cc(NC(=O)c3ccncc3)ccc2O[C@@H]1CN(C)S(=O)(=O)c1ccc(F)cc1	-0.31	5	0.6	-5
CN(CCCC(=O)O)c1nc(-c2ccc(F)cc2)cs1	·	·	-1.0	-39
NC(=O)c1ccc(-n2c(CCC(=O)O)ccc2-c2cccs2)cc1	·	·	-0.3	-14
C[C@@H]1CN([C@@H](C)CO)C(=O)c2cccc(NC(=O)c3cnccn3)c2O[C@H]1CN(C)Cc1ccccc1	-0.62	32	-2.3	14
CCSc1nnc2c(n1)OC1(Nc3ccccc3-2)C(=O)Nc2ccc(Br)cc21 (stereo not given)	-0.4	11	-1.7	19
C[C@@H]1CN([C@@H](C)CO)C(=O)c2cc(NS(=O)(=O)c3ccc(Cl)cc3)ccc2O[C@@H]1CN(C)Cc1ccc(Cl)c(Cl)c1	-0.03	-7	-1.2	49
Cc1ccc(S(=O)(=O)N(C)CC(=O)Nc2ccc(F)cc2)cc1	·	·	0.1	-1
Cc1nn(Cc2cccc(C(=O)Nc3ccc(S(=O)(=O)N4CCCCC4)cc3)c2)c(C)c1Cl	·	·	-2.3	47
C[C@@H]1CN([C@H](C)CO)C(=O)Cc2cc(NC(=O)Nc3ccc(F)cc3)ccc2O[C@@H]1CN(C)Cc1ccc(C(=O)Nc2ccccc2N)cc1	-0.55	·	-1.2	-5
Cc1ccc(-c2nc3ncccc3o2)cc1NC(=O)COc1cc(C)c(Cl)c(C)c1	·	·	-3.1	0
CNC[C@H]1Oc2ccc(NS(=O)(=O)c3ccc(OC)cc3)cc2C(=O)N([C@H](C)CO)C[C@@H]1C	0.1	10	1.6	-3
COc1ccc(S(=O)(=O)Nc2ccc3c(c2)C(=O)N([C@H](C)CO)C[C@@H](C)[C@@H](CN(C)C(=O)Nc2ccccc2)O3)cc1	0.15	·	0.3	6

Source: PubChem BioAssay

Only part of the results is shown (hit frequency here may not be typical).
